VDR inhibitor: blocks the human vitamin D receptor | P11473 | VDR-SRC2-3 peptide fluorescence polarization, 2 h | Potency, µM, without a hit: max response, negative = inhibition, usual class: inhibitors | 400,000 compounds, 0.93% hits; active means well fitted inhibition curve with a large enough effect; inconclusive means small, poorly fitted or top-dose-only effect, or another doubt; inactive means no such curve, though single readings can be large or run the other way; further: series mostly up to about 120 µM
Target sequence (P11473 whole entry, looked up): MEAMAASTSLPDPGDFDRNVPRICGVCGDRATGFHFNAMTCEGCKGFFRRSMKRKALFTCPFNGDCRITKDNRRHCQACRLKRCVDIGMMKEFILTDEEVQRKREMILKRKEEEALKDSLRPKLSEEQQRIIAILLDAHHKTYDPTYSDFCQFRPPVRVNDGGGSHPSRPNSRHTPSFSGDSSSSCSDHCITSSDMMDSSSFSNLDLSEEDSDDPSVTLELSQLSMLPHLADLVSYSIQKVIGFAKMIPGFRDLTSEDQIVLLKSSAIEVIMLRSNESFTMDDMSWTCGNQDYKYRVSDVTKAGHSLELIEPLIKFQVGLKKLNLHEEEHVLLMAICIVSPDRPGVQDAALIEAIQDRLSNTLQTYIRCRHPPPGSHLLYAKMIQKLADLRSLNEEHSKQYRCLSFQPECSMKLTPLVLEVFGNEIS
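Fluorescence polarization assay of small-molecule disruption of VDR binding to coregulator peptide SRC2-3. Compounds and controls pin-transferred, then read after 2 h incubation at ambient room temperature.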
* hit, by the source's call; [ ] = remark or other dose. On the % scale 0 is the no-effect control and ±100 the full control effect; potency means the concentration at half of the fitted maximal effect. These rows are one share of the data (hit frequency here may not be typical).

`Cc1ccc(-c2nc3c4ccccc4n(CC(=O)N4CCN(c5ccccc5F)CC4)c(=O)n3n2)cc1` gave VDR inhibitor -5%.
For O=C(Nn1cnc2ccccc2c1=O)c1ccc([N+](=O)[O-])cc1Cl the results were VDR inhibitor 4%.
`O=C(NCCCn1ccnc1)c1ccccc1NS(=O)(=O)c1ccc(F)c(F)c1` gave VDR inhibitor -9%.
`CCOC(=O)c1ccc(S(=O)(=O)N2CCN(C3CC(=O)N(c4ccccc4C(F)(F)F)C3=O)CC2)cc1` (stereo unspecified) gave VDR inhibitor -14%.
`O=C(COC(=O)C12CC3CC(CC(O)(C3)C1)C2)NCCc1ccc(Cl)cc1` gave VDR inhibitor -18%.
`O=C(CN1CCN(c2cccc(Cl)c2)CC1)c1ccc(O)cc1O` gave VDR inhibitor -7%.
Cc1ccc(-n2c(SCCC(C)C)nc3sc4c(c3c2=O)CC(C)(C)OC4)cc1 was read as VDR inhibitor -11%.
Screening O=C1CSCC(=O)N1Cc1ccc(Cl)c(Cl)c1 returned VDR inhibitor -12%.
Screening COc1ccc(Cl)cc1NC(=O)CSc1nnc(C2CC2)n1N returned VDR inhibitor -16%.
`CCOC(=O)c1nc(C)n(-c2cc(OC)c(Cl)cc2Cl)n1` gave VDR inhibitor 3%.
Screening COC(=O)c1cccc2c(C(=O)O)cc(-c3ccccc3)nc12 returned VDR inhibitor -26%.
For COc1ccc(-c2csc3nc(-c4ccccc4F)oc(=O)c23)cc1OC the results were VDR inhibitor 38%[activator].
For CCOC(=O)c1c(C)[nH]c(C(=O)OCC(=O)Nc2cc(C)ccc2OC)c1C the results were VDR inhibitor -10%.
Screening Cc1nc(NCc2ccco2)[nH]c(=O)c1CCC(C)C returned VDR inhibitor 1%.
For Cc1oc2cc3oc(=O)c(CC(=O)N[C@H](C(=O)N[C@@H](C(=O)O)c4ccccc4)C(C)C)c(C)c3cc2c1C the results were VDR inhibitor -7%.
Screening Nc1cc(C(=O)OCC(=O)N2CCOCC2)ccc1Cl returned VDR inhibitor -1%.
For CCOC(=O)CSCC(=O)Nc1c(C(=O)C2CC2)oc2ccccc12 the results were VDR inhibitor 2%.
Screening C/C(=N\NC(=O)c1nnn(-c2nonc2N)c1CN(C)C)c1ccco1 returned VDR inhibitor -18%.
CS(=O)(=O)c1ccccc1C(=O)Nc1cccc2ncccc12 was read as VDR inhibitor -5%.
`CN(CC(=O)N1CCN(c2ncccn2)CC1)S(=O)(=O)c1ccc(Cl)cc1` gave VDR inhibitor 7%.
For Cc1cc(C)c(NC(=S)N2CCN(c3ccc([N+](=O)[O-])cn3)CC2)cc1C the results were VDR inhibitor -9%.
For C#CCOCCOCCOCCNc1nc(N2CCN(C(=O)[C@H](CCC(=O)O)n3cc(C(N)Cc4ccc(O)cc4)nn3)CC2)nc(N2CCN(C(=O)[C@H](CCC(=O)O)n3cc(C(N)[C@H](C)CC)nn3)CC2)n1 (stereo partly specified) the results were VDR inhibitor -25%.
C=Cc1ccc(Cn2c(C)c(CNCCc3ccc(OCC)cc3)c(C(=O)O)c2C)cc1 was read as VDR inhibitor 10%.
Screening CC1(C)CC(N2CCCC2)=CC(=[N+]2CCCCC2)C1 returned VDR inhibitor -15%.
`Cc1ccc(N(C(=O)Cn2nnc(-c3ccccc3F)n2)C(C(=O)NC2CCCC2)c2ccncc2)cc1` (stereo unspecified) gave VDR inhibitor -14%.
Screening S=C(NCc1cccs1)Nc1cccc2ccccc12 returned VDR inhibitor -15%.
Screening Cn1cnnc1SCC(=O)N1N=C(c2ccc(Cl)cc2)CC1c1ccco1 (stereo unspecified) returned VDR inhibitor -1%.
`COc1cc(NC(=O)CN2C(=O)C(c3ccc(C)cc3)=NC23CCCCCC3)cc(OC)c1` gave VDR inhibitor 18%.
For O=C(O)Cn1cc(C(=S)N2CCOCC2)c2ccccc21 the results were VDR inhibitor inconclusive.
For CCCCNC(=O)c1cn(C)c2ccc(S(=O)(=O)N3CC(C)CC(C)C3)cc2c1=O (stereo unspecified) the results were VDR inhibitor -3%.
Screening CCN1CCN(c2c(S(=O)(=O)c3ccc(C)c(C)c3)cnc3cc(OC)c(OC)cc23)CC1 returned VDR inhibitor 0%.
Cc1cc(=O)oc2cc(OCC(=O)NCc3ccccn3)ccc12 was read as VDR inhibitor -7%.
COc1cc(Cl)c(C)cc1NC(=O)c1cc2c(s1)-c1c(C)cccc1OC2 was read as VDR inhibitor 9%.
Screening CNC(=S)Nc1ccc([N+](=O)[O-])c(C)c1 returned VDR inhibitor -15%.
Cc1ccc(CNC(=O)c2sc3nc(-c4ccccc4)cn3c2C)cc1 was read as VDR inhibitor 5%.
For O=C(Nc1ccccc1N1CCCCC1)C1CC(=O)N(c2ccccc2F)C1 (stereo unspecified) the results were VDR inhibitor 1%.
`COc1cc2nc(CN3CCN(S(=O)(=O)c4cc(C)ccc4C)CC3)[nH]c(=O)c2cc1OC` gave VDR inhibitor -2%.
Screening COc1ccc2c(c1)c(=O)c(S(=O)(=O)c1ccc(C)c(C)c1)cn2CC(=O)Nc1ccccc1 returned VDR inhibitor 13%.
For O=C(COc1ccc(Cl)cc1)Nc1ccc(-c2nc3cc(Cl)ccc3o2)c(O)c1 the results were VDR inhibitor -10%.
For CCCCCOC(=O)C1=C(C)NC(=O)NC1c1ccc(OC)cc1 (stereo unspecified) the results were VDR inhibitor 11%.
`Cc1c(C(=O)OC2CCC(C)CC2)[nH]c2c1C(=O)CCC2` (stereo unspecified) gave VDR inhibitor -6%.
Cc1c(NC(=O)COC(=O)CSc2ccc(C(N)=O)cc2[N+](=O)[O-])c(=O)n(-c2ccccc2)n1C was read as VDR inhibitor 12%.
`CC(=O)Nc1c(C(=O)NCc2ccccc2)nnn1Cc1ccccc1` gave VDR inhibitor 5%.
`COc1ccc(-c2nn(-c3ccccc3)cc2/C=N/NC(=O)c2cccc(S(=O)(=O)Nc3ccccc3Cl)c2)cc1` gave VDR inhibitor -21%.
O=C(CN1CCOCC1)Nc1scc(-c2ccccc2)c1C(=O)N1CCOCC1 was read as VDR inhibitor 11%.
Screening COc1ccc(-c2cn3c(C)c(C(=O)N4CCN(c5ccc(F)cc5)CC4)sc3n2)cc1 returned VDR inhibitor -2%.
CC(=O)N(Cc1ccc(F)cc1)C1=C(NCCc2ccccc2)C(=O)c2ccccc2C1=O was read as VDR inhibitor 15%.
CC(NS(=O)(=O)c1ccc2c(c1)CC(C)N2C(=O)C1CC1)c1ccccc1 (stereo unspecified) was read as VDR inhibitor -23%.
Screening CC1(C)Cc2c(sc(NC(=O)c3ccc(C(=O)c4ccccc4)cc3)c2C#N)C(C)(C)N1 returned VDR inhibitor -13%.
For CCCNC(=O)NC(=O)COC(=O)CC(NC(N)=O)c1ccc(Cl)cc1 (stereo unspecified) the results were VDR inhibitor -22%.
Screening CC1(C)OC(=O)C(=CNc2ccccc2F)C(=O)O1 returned VDR inhibitor -5%.
`O=C(Nc1ccc(Cl)cc1)N1CCN(Cc2ccc3c(c2)OCO3)CC1` gave VDR inhibitor 0%.
O=C(COC(=O)c1nn(-c2ccccc2C(F)(F)F)cc1O)c1ccc(OC(F)F)cc1 was read as VDR inhibitor -10%.
N#Cc1c(-c2ccccc2)cc(-c2ccccc2)nc1SCC(O)CS(=O)(=O)Cc1ccc(Cl)cc1 (stereo unspecified) was read as VDR inhibitor 28µM*.
Screening COc1ccc(CCN(C)C(=O)CN2C(=O)NC3(CCCCCC3)C2=O)cc1OC returned VDR inhibitor -4%.
Screening Cc1ccc(-c2ccnc3nc(Sc4ncc(C(F)(F)F)cc4Cl)nn23)cc1 returned VDR inhibitor -4%.
For Nc1nnc(CC(=O)N/N=C/c2ccc(-c3ccccc3)o2)s1 the results were VDR inhibitor -4%.
Screening O=C(O)CCSc1nnc(-c2ccccc2)n1-c1ccccc1 returned VDR inhibitor -8%.
S=C(Nc1ccccc1)Nc1ccc(Cl)cc1Cl was read as VDR inhibitor 0%.
`Cc1ccc(CNC(=O)c2cccc(-n3cnc4cccnc43)c2)cc1` gave VDR inhibitor 2%.

An excerpt taken from the entries so far:
`Cc1ccc(-c2nc3c4ccccc4n(CC(=O)N4CCN(c5ccccc5F)CC4)c(=O)n3n2)cc1` gave VDR inhibitor -5%.
For O=C(Nn1cnc2ccccc2c1=O)c1ccc([N+](=O)[O-])cc1Cl the results were VDR inhibitor 4%.

Next part.
Cc1oc2nc(SCC(=O)NCc3cccnc3)nc(N)c2c1C was read as VDR inhibitor -12%.
CC(C)c1cc(C(=O)N2CCCC(CCC(=O)N3CCN(c4ccccn4)CC3)C2)no1 (stereo unspecified) was read as VDR inhibitor 1%.
Screening O=[N+]([O-])c1c(NCCCO)cc(Sc2nc3ccccc3s2)c2nonc12 returned VDR inhibitor 16µM*.
`Cc1ccc(NC(=O)c2sc3nc[nH]c(=O)c3c2C)cc1C` gave VDR inhibitor 18%.
`COC(=O)/C=C(\C)NC(=O)c1cccs1` gave VDR inhibitor -5%.
Screening Cc1cc(N2CCCCC2)nc2ccc(NC(=O)c3cccc(F)c3)cc12 returned VDR inhibitor 2%.
CCOC(=O)C1CCN(S(=O)(=O)c2ccccc2)CC1 was read as VDR inhibitor 25%.
`COc1ccc(S(=O)(=O)Cc2ccc(C(=O)N3CCN(Cc4ccccc4)CC3)o2)cc1` gave VDR inhibitor -11%.
CCOc1ccccc1N1CCN(C(=O)c2cc(-c3cccnc3)nc3c(Cl)cccc23)CC1 was read as VDR inhibitor 4%.
`O=C(NCc1nnc2n1CCCCC2)c1ccc(Cl)cc1Cl` gave VDR inhibitor 10%.
For O=C(CCC(=O)N1CCN(S(=O)(=O)c2ccccc2)CC1)NC1CCCc2ccccc21 (stereo unspecified) the results were VDR inhibitor 2%.
For CC(C)(C)OC(=O)N1C2C=CC1C1=COCCN1C2=O (stereo unspecified) the results were VDR inhibitor -12%.
For Cn1c(=O)n(C)c2cc(S(=O)(=O)NCCOCCO)ccc21 the results were VDR inhibitor 12%.
O=C(CCn1c(SCC(=O)NCc2ccco2)nc2ccccc2c1=O)NCCc1ccccc1 was read as VDR inhibitor -27%.
Screening O=C(O)Cn1c(-c2cccs2)cc2cc(Cl)ccc21 returned VDR inhibitor 8%.
O=C1/C(=C/c2ccccn2)SC(=S)N1NS(=O)(=O)c1ccccc1 was read as VDR inhibitor -25%.
For Cc1cc(C)n(-c2ccc(C(=O)OCC(=O)Nc3ccccc3[N+](=O)[O-])cc2)n1 the results were VDR inhibitor 1%.
Screening CCCCC[C@H](O)/C=C/[C@H]1C(=O)C=C[C@@H]1C/C=C\CCCC(=O)O returned VDR inhibitor 32µM*.
COCCNC(=O)C(c1ccc(F)cc1)N(Cc1ccco1)C(=O)CCC(=O)Nc1ccccn1 (stereo unspecified) was read as VDR inhibitor 9%.
`O=C(Nc1nnc(-c2ccccn2)o1)c1cccc(Cl)c1` gave VDR inhibitor -18%.
For O=C(CCBr)Nc1cccc2cccnc12 the results were VDR inhibitor -6%.
Screening CCOc1ccc2[nH]c(C(=O)N/N=C/c3ccc(OC)cc3)cc2c1 returned VDR inhibitor -7%.
Screening COc1ccc(Cn2nnc3c(=O)[nH]c(C4CCN(C(=O)c5ccc(C)cc5)CC4)nc32)cc1OC returned VDR inhibitor 19%.
`COc1ccc(CNC(=O)c2cnc(N(C)C)nc2)cc1` gave VDR inhibitor 7%.
Screening CC(C)NC(=O)N(C)C[C@H]1Oc2ccc(NC(=O)Cc3ccccc3)cc2C(=O)N([C@H](C)CO)C[C@@H]1C returned VDR inhibitor -13%.
Screening COc1cc(/C=C2/C(=O)NN(c3cccc(C)c3)C2=O)ccc1OC(=O)c1ccco1 returned VDR inhibitor 50µM*.
`Cc1cc(C)cc(Nc2nc3c(S(=O)(=O)c4cccc(Cl)c4)nnn3c3ccsc23)c1` gave VDR inhibitor 7%.
Screening CCCCC[n+]1ccn(C2=C([O-])c3ccccc3C(=O)/C2=N\S(=O)(=O)c2ccc(Cl)cc2)c1 returned VDR inhibitor -29%.
Screening CNC(=O)c1c(Cl)cnn1-c1ccc(F)cc1 returned VDR inhibitor -4%.
CCOC(=O)c1c(C)oc2ncnc(NCCc3ccccc3)c12 was read as VDR inhibitor 9%.
CCOC(=O)N=Nc1c(O)n(C)c2ccccc12 was read as VDR inhibitor 5%.
Screening CCOc1ccccc1NC(=O)n1ncc2cc(Cl)ccc21 returned VDR inhibitor 6%.
For Cc1cc(NC(=O)CN(C)S(=O)(=O)c2ccc3c(c2)CCC(=O)N3)ccc1Br the results were VDR inhibitor -15%.
`CC1CCN(Cc2cc(=O)oc3cc(O)c(Cl)cc23)CC1` gave VDR inhibitor -21%.
COc1ccc(CCNC(=O)COC(=O)C23CC4CC(CC(C4)C2)C3)cc1 was read as VDR inhibitor -1%.
Nc1ccn(Cc2ccc(F)cc2)n1 was read as VDR inhibitor 12%.
Cc1cc(C)c(SCCc2ccncc2)c(C)c1 was read as VDR inhibitor 11%.
Screening N=c1sccn1CC(=O)Nc1ccc(S(=O)(=O)N2CCOCC2)cc1 returned VDR inhibitor 17%.
O=[N+]([O-])c1ccc(NC(=S)N2CCCC2)cc1 was read as VDR inhibitor -3%.
`CCCCCCOC(=O)Sc1nc2ccccc2o1` gave VDR inhibitor 15%.
For COc1cccc(-c2nc3c(C#N)c[nH]n3c2NC2CCC(C)CC2)c1 (stereo unspecified) the results were VDR inhibitor 3%.
Screening COc1ccc(OCC(=O)NCc2ccc3c(c2)CCN3C(=O)c2ccc(F)cc2)cc1 returned VDR inhibitor 12%.
O=C1CCC(C(=O)N2CCCCO2)CN1CCc1ccccc1 (stereo unspecified) was read as VDR inhibitor 17%.

Five structures from above, arranged by molecular weight, ascending:
Screening CC1(C)CC(N2CCCC2)=CC(=[N+]2CCCCC2)C1 returned VDR inhibitor -15%.
For Nc1nnc(CC(=O)N/N=C/c2ccc(-c3ccccc3)o2)s1 the results were VDR inhibitor -4%.
`O=C(NCc1nnc2n1CCCCC2)c1ccc(Cl)cc1Cl` gave VDR inhibitor 10%.
CC(NS(=O)(=O)c1ccc2c(c1)CC(C)N2C(=O)C1CC1)c1ccccc1 (stereo unspecified) was read as VDR inhibitor -23%.
CC(C)c1cc(C(=O)N2CCCC(CCC(=O)N3CCN(c4ccccn4)CC3)C2)no1 (stereo unspecified) was read as VDR inhibitor 1%.
